H69AR growth 86K: blocks growth of human H69AR lung tumor cells. H69AR lung tumor viability, ATP luminescence, 72 h; stronger effect = lower value. actives 6% (n = 85,000). viability, % at 10 µM;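 active = viability at or below 40%; inactive = viability above 40%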;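 note: multidrug resistant small cell line overexpressing MRP-1 efflux transporter; 100% = mean luminescence of untreated control wells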
PostGolgi ctrl: growth of the yeast control strain, post-Golgi counter-screen. efflux-deficient yeast background strain, growth absorbance A615, 16 h. inhibition, % at 10 µM. actives 5% (n = 98,000); in the data active = inhibition above about 30%
S1P2 agonist: activates the human S1P2 receptor; O95136; S1P2-expressing cell line, agonist reporter read-out; activation, % at 4.5 µM; actives 0.46% (n = 97,000); in the data active = activation above about 16%;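 note: 0% = vehicle low control and 100% = maximal reference agonist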
Target sequence (O95136 whole entry, looked up): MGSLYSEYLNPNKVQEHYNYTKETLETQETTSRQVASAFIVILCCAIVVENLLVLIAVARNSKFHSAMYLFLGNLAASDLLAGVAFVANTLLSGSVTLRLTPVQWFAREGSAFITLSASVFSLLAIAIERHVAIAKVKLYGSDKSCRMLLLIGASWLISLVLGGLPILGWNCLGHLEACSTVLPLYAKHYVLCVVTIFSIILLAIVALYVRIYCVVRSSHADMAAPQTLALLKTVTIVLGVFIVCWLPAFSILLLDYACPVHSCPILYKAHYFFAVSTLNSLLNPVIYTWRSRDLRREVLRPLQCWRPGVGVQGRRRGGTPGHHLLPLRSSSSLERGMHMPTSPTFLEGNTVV
Lung fibro prol: blocks proliferation of human lung fibroblasts; actives 1.1% (n = 85,000); LL 47 human lung fibroblast viability, ATP luminescence; stronger effect = lower value; viability, % at 10 µM;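 active = viability at or below 50% in the single dose screen; inactive = viability above 50%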;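 note: compound exposure lasted 72 h before the ATP readout; 100% = median luminescence of untreated cell-only wells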
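Test system: LL 47 human lung fibroblasts / Quantity: 1,150 cells in each well / Medium: IMEM growth medium with 15% fetal bovine serum / Incubation: 72 h compound exposure at 37 °C after overnight plating / Detection: CellTiter-Glo luminescence measuring cellular ATP / Read-out: % viability versus median cells-only luminescence / Benchmarks: cell-only wells, no compound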
S1P2 blocker: antagonists of human S1P2 receptor. AID 736. O95136. inhibition, % at 5 µM. actives 0.21% (n = 97,000). cell-based S1P2 antagonist assay, inhibition at 5 uM; in the data active = inhibition above about 45%;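 note: CRE beta-lactamase reporter cells expressing human S1P2 stimulated with S1P; 0% = agonist at EC80 alone and 100% = agonist plus reference antagonist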
HUVEC inhibit: blocks proliferation of human endothelial cells; HUVEC proliferation, CellTiter-Glo luminescence, 72 h; stronger effect = lower value; viability, % at 10 µM (by protocol); actives 1.1% (n = 86,000);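 active = viability at or below 30%; inactive = viability above 30%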;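 note: 100% = median luminescence of DMSO-only cell control wells on each plate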
PTPN22 act: activators of human LYP (PTPN22) phosphatase | Q9Y2R2 | recombinant LYP, DiFMUP fluorescence; 0 = plate median, 100 = signal doubled | activation, % at 2 µM | actives 0.11% (n = 96,000) | AID 697;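 active = activation at 2 µM above a set limit, the mean plus 5 SD, cut at about 37% in these data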
Numbers without * were called inactive; x = no result given.

SMILES | H69AR growth 86K | PostGolgi ctrl | S1P2 agonist | Lung fibro prol | S1P2 blocker | HUVEC inhibit | PTPN22 act
CCCNc1nc2c(c(=O)n(C)c(=O)n2C)n1CCc1ccccc1 | 90.5 | 6.8 | -6.4 | 96.8 | 7.6 | 100.2 | -1.7
CCCCc1nc2n[nH]c(N)c2c2c1CSC(C)(C)C2 | 78.3 | 5.2 | -1.3 | 103.0 | -1.7 | 113.2 | -1.8
Cc1cc(-c2[nH]nc3c2C(c2cccc(O)c2)C(C#N)=C(N)O3)c(C)s1 (stereo unspecified) | 99.1 | 0.1 | -1.8 | 101.9 | 2.0 | 85.9 | -0.2
CCCCc1nc2ccccc2n2cc3c(=O)n(C)c(=O)n(C)c3c12 | 88.0 | x | 1.2 | 99.0 | -4.2 | 103.4 | -0.5
N#CC(c1ccccc1)(c1ncc(C(F)(F)F)cc1Cl)N1CCOCC1 (stereo unspecified) | x | 4.1 | -6.5 | x | 6.7 | x | -9.8
CC(C)Cn1c2ccccc2c2cc(C(=O)O)ccc21 | 97.5 | 26.2 | -5.3 | 99.8 | -6.2 | 100.5 | -13.1
CCn1c(Cc2ccccc2)nnc1SCC(=O)Nc1ccccc1 | 90.0 | 6.1 | -6.8 | 114.2 | 19.9 | 102.6 | -11.5
O=C(NCCO)c1ccccc1O | 95.0 | 5.0 | -4.8 | 93.8 | 8.4 | 100.2 | -0.1
C#CCNc1nc(CC)nc2c1nnn2Cc1ccccc1F | 78.6 | 10.1 | 28.0* | 94.9 | -29.5 | 114.6 | -2.4
COc1cc2c(cc1OC)CN(C(=O)CC1CC3CCC1C3)CC2 (stereo unspecified) | x | 9.6 | -2.6 | x | 10.6 | x | -3.9
COc1ccc(C(=O)OCC(=O)Nc2cc(C)on2)cc1S(=O)(=O)N1CCOCC1 | 87.5 | 0.1 | -4.3 | 100.6 | 3.4 | 98.2 | 0.0
Cc1ccnc(N2CCC(C(=O)NNC(=O)c3ccccc3C)CC2)n1 | x | -4.3 | -4.7 | x | 13.7 | x | -2.4
O=C(NCc1ccco1)NC12CC3CC(CC(C3)C1)C2 | 90.9 | 5.4 | -2.5 | 94.6 | -24.3 | 115.8 | 3.7
COc1cccc(OCC(=O)NNC(=O)c2ccc(-c3ccccc3)cc2)c1 | x | 14.7 | -4.7 | x | 8.4 | x | -0.6
CCN(CC(=O)Nc1ccc2c(c1)OCCO2)S(=O)(=O)c1cccs1 | x | -2.7 | 4.0 | x | -6.6 | x | -2.5
CC(C)(C)c1ccc(C(=O)CCCSC2=C(C#N)C(c3ccco3)C3=C(CCCC3=O)N2)cc1 (stereo unspecified) | 49.3 | -6.7 | -2.0 | 81.5 | 9.5 | 67.7 | -8.3
COCCn1c(=NC(=O)CSCC(=O)NC2CCCCC2)sc2cc(OC)ccc21 | 87.6 | 47.7* | -5.1 | 88.0 | -10.1 | 95.5 | -2.1
O=C(Nc1ccc2c(c1)CCC2)C1CCCN(c2ncccn2)C1 (stereo unspecified) | 68.2 | 0.4 | -2.7 | 100.4 | -7.4 | 87.0 | 2.1
Cc1cccc(OCC(=O)NNC(=O)CSc2ncc(C#N)c(N)n2)c1 | x | 4.1 | -1.7 | x | 9.8 | x | -2.6
O=C(Nc1cccc(Cl)c1Cl)C1CCN(c2ncccn2)CC1 | 84.7 | 7.3 | 2.1 | 100.5 | 11.7 | 91.3 | 4.6
CC(c1ccccc1)C1CC(=O)N(CC(=O)O)C1=O (stereo unspecified) | 106.7 | 2.1 | -6.1 | 106.7 | -7.9 | 102.8 | 1.7
COc1ccc(Oc2nc3c(c(=O)n(C)c(=O)n3C)n2Cc2ccccc2)cc1 | 82.8 | 8.0 | 2.5 | 93.1 | -11.2 | 76.6 | 7.6
O=C(Nc1ccc2c(c1)OCCO2)c1cncc(Br)c1 | 88.0 | 16.4 | -2.6 | 107.5 | -12.3 | 101.8 | 18.9
CN1CCN(c2cc(-c3ccccc3)nc3cc(-c4ccc(F)cc4)nn23)CC1 | x | 72.8* | -2.6 | x | -6.5 | x | -1.5
O=C(Nc1cccc(-c2nc3ccccc3[nH]2)c1)c1ccco1 | 34.1* | 7.7 | -3.7 | 95.5 | 15.4 | 76.7 | -0.4

Some entries already given, reduced to S1P2 blocker, S1P2 agonist and HUVEC inhibit:
structure	S1P2 blocker	S1P2 agonist	HUVEC inhibit
CC(c1ccccc1)C1CC(=O)N(CC(=O)O)C1=O (stereo unspecified)	-7.9	-6.1	102.8
COc1ccc(Oc2nc3c(c(=O)n(C)c(=O)n3C)n2Cc2ccccc2)cc1	-11.2	2.5	76.6

Next results.
SMILES | H69AR growth 86K | PostGolgi ctrl | S1P2 agonist | Lung fibro prol | S1P2 blocker | HUVEC inhibit | PTPN22 act
FC(F)(F)c1cnc(-c2cnc3c(-c4ccc(Cl)cc4)cnn3c2)c(Cl)c1 | x | 9.0 | -5.3 | x | -9.1 | x | 10.4
Cc1ccccc1C(=O)Nc1ccc(C(=O)NNC(=O)CCCOc2ccc(Cl)cc2Cl)cc1 | x | 12.1 | -5.9 | x | 4.0 | x | -5.1
O=C(CCNc1cc(Cl)cc(Cl)c1)c1ccco1 | 83.2 | 15.1 | 1.0 | 100.3 | -4.0 | 90.2 | 2.0
O=C(Nc1ccc2nsnc2c1)NC1CCCCC1 | x | 0.1 | -1.3 | x | -3.9 | x | -9.5
COCCn1c(SCc2nc3sc(C(=O)OC)c(C)c3c(=O)[nH]2)nc2ccccc21 | 75.0 | 26.8 | -5.5 | 100.2 | -9.1 | 97.9 | -5.0
CCc1nnc(NC(=O)c2ccc(S(=O)(=O)N(CCOC)CCOC)cc2)o1 | 66.0 | 5.9 | -7.1 | 97.5 | 21.4 | 97.9 | 3.5
CC1C/C(=N\NC(=S)NCc2ccccc2)CC(C)(C)C1 (stereo unspecified) | x | 7.8 | -8.1 | x | -7.1 | x | 5.7
Cc1ccc(C)c(NC(=O)CCC(=O)N/N=C/c2ccc[nH]2)c1 | x | 14.8 | -6.0 | x | 15.2 | x | -9.6
O=C(Nc1ccc2oc(=O)ccc2c1)c1ccco1 | 81.6 | 3.8 | -5.5 | 101.8 | 10.6 | 88.6 | -4.1
Cc1cc(C)nc(/N=C(\N)Nc2cc([N+](=O)[O-])ccc2C)n1 | x | 17.6 | -13.1 | x | -16.0 | x | -2.9
O=C(CCSc1nc(-c2ccc3c(c2)OCO3)cc(C(F)(F)F)n1)NCc1ccccc1 | 23.4* | x | -6.5 | 99.1 | 5.0 | 90.5 | -2.2
O=C(NCc1cccs1)C1CCCN(S(=O)(=O)c2cnc[nH]2)C1 (stereo unspecified) | 103.2 | -1.0 | -2.6 | 91.1 | 0.1 | 98.7 | 3.1
COc1ccc(-c2cnnn2-c2ccc(NC(=O)c3ccco3)cc2)cc1OC | x | 18.4 | 7.2 | 94.4 | -33.3 | 107.0 | 12.1
Cc1ccc2[nH]c(=O)c(-c3noc(-c4ccncc4)n3)cc2c1 | 81.5 | x | -3.0 | 108.0 | 12.7 | 92.0 | -5.2
COc1ccc(C(=O)N/C(=C\c2cccs2)c2nc3ccccc3[nH]2)cc1OC | x | 1.5 | -4.4 | x | -6.5 | x | -2.0
COC(CNC(=O)C1CC(=O)N(CCc2ccccc2)C1)OC (stereo unspecified) | 92.3 | 9.1 | 4.0 | 93.2 | 17.4 | 103.2 | -3.9
COC(=O)c1nnn(CC(=O)Nc2cccc(Cl)c2C)c1C(=O)OC | 91.7 | 9.8 | -4.3 | 105.2 | -18.1 | 96.1 | 8.8
Cn1c(=O)c2c(nc(NCCCO)n2Cc2cccc(C(F)(F)F)c2)n(C)c1=O | 74.5 | 2.2 | -2.2 | 94.9 | -3.4 | 90.7 | 1.9
O=c1cc(NC2CCCCC2)c2ccccc2o1 | 45.4 | 9.3 | -3.9 | 88.1 | -0.5 | 89.6 | 2.3
CCCCCCNCc1ccc(Br)cc1 | x | 1.8 | -14.0 | x | -23.6 | x | 8.5
CC(C)NC(=O)C(OC(=O)c1ccccc1)C(OC(=O)c1ccccc1)C(=O)O (stereo unspecified) | x | 5.0 | -0.4 | x | -11.8 | x | 1.1
Fc1cccc(Cl)c1CSc1ncn[nH]1 | x | 9.9 | -9.2 | x | 13.9 | x | 0.2
Cc1nn(C)c(C(=O)Nc2ccn(Cc3ccccc3F)n2)c1[N+](=O)[O-] | x | 0.6 | -5.5 | x | -3.6 | x | 14.6
CCCOc1cccc(C2/C(=C(/O)c3ccc(F)cc3)C(=O)C(=O)N2CCN(C)C)c1 (stereo unspecified) | 93.3 | 17.5 | -7.8 | 101.0 | 16.8 | 91.7 | 8.8
CCN1CCc2c(sc(NC(=S)NC(=O)c3ccccc3)c2C#N)C1 | x | -5.0 | -2.9 | x | 3.4 | x | -11.1

One compound at a time, as listed above.
COC(=O)c1nnn(CC(=O)Nc2cccc(Cl)c2C)c1C(=O)OC across the screens: H69AR growth 86K = 91.7; PostGolgi ctrl = 9.8; S1P2 agonist = -4.3; Lung fibro prol = 105.2; S1P2 blocker = -18.1; HUVEC inhibit = 96.1; PTPN22 act = 8.8
CC1C/C(=N\NC(=S)NCc2ccccc2)CC(C)(C)C1 (stereo unspecified) across the screens: H69AR growth 86K = x; PostGolgi ctrl = 7.8; S1P2 agonist = -8.1; Lung fibro prol = x; S1P2 blocker = -7.1; HUVEC inhibit = x; PTPN22 act = 5.7
CCc1nnc(NC(=O)c2ccc(S(=O)(=O)N(CCOC)CCOC)cc2)o1 across the screens: H69AR growth 86K = 66.0; PostGolgi ctrl = 5.9; S1P2 agonist = -7.1; Lung fibro prol = 97.5; S1P2 blocker = 21.4; HUVEC inhibit = 97.9; PTPN22 act = 3.5

Additional compounds.
SMILES | H69AR growth 86K | PostGolgi ctrl | S1P2 agonist | Lung fibro prol | S1P2 blocker | HUVEC inhibit | PTPN22 act
CC(=O)c1ccc(NC(=O)CSc2nnc(-c3ccoc3C)n2Cc2ccccc2)cc1 | 77.0 | 2.4 | -1.2 | 96.0 | 11.8 | 98.6 | 1.9
COc1ccc(CNC(=O)C2CCNCC2)cc1 | 101.0 | 3.0 | -3.3 | 94.7 | 15.1 | 102.3 | 0.1
O=C(Nc1ccc(Cl)cn1)C1CCCN1S(=O)(=O)c1ccccc1 (stereo unspecified) | 103.5 | -1.5 | -3.7 | 98.6 | -1.4 | 105.7 | -0.8
O=C(Nn1cnnc1)C1CCCN1S(=O)(=O)c1ccc(F)cc1 (stereo unspecified) | 88.5 | 22.1 | -8.4 | 96.3 | -14.6 | 91.3 | 0.4
CSCC[C@H](NC(=O)CCn1nnc2ccccc2c1=O)C(=O)O | 94.8 | -1.7 | -7.3 | 106.0 | -2.4 | 97.7 | -6.5
COc1ccc(NC(=O)COn2nnc3ccc(Cl)cc32)cc1OC | 39.3* | 12.7 | -4.0 | 85.5 | 18.6 | 92.9 | -0.9
CCCc1nc(-c2cc3ccc(C)cc3[nH]c2=O)no1 | 101.4 | -0.3 | -2.8 | 99.4 | -6.4 | 93.8 | 23.8
COc1nc(Nc2ccc3c(c2)OCO3)nc(OC)n1 | 86.8 | 0.5 | x | 96.2 | x | 83.1 | -4.9
Cc1nc(N2N=C3/C(=C/c4ccc(F)cc4)CCCC3C2c2ccc(F)cc2)sc1C(=O)N(C)C (stereo unspecified) | x | 15.4 | -7.9 | x | 34.1 | x | -4.6
CCc1ccc(N2C(=O)c3sc4nnc(-c5ccccc5)c(=O)n4c3C2=O)cc1 | 30.3* | 5.4 | -8.5 | 60.8 | 6.6 | 81.0 | -14.4
CCc1nnc(NC(=O)C2CC(=O)N(CCc3ccccc3)C2)s1 (stereo unspecified) | 86.6 | 20.0 | -5.6 | 101.3 | -7.8 | 98.5 | 14.0
CS(=O)(=O)N(CC(=O)N/N=C/c1cccc2c1OCCO2)c1ccccc1Br | x | 15.4 | -3.4 | x | -9.9 | x | -11.9
O=C(NCc1ccco1)C1(S(=O)(=O)c2ccc(Cl)cc2)CC1 | 94.0 | 2.8 | -4.8 | 97.9 | 14.7 | 93.8 | -12.6
CCC(C)c1ccc(NC(=O)C2CCCN(c3ncccn3)C2)cc1 (stereo unspecified) | x | 18.3 | -8.1 | x | -10.1 | x | -5.7
Cn1c(=NC(=O)CSCC(=O)N2CCOCC2)sc2ccccc21 | 97.3 | 6.5 | -6.7 | 96.6 | -2.5 | 91.7 | 2.0
Cc1ccc2cc3c(nc2c1)N(Cc1ccco1)CC3 | 86.8 | 2.2 | -7.4 | x | 22.7 | 110.3 | 6.0
CCOc1cc(C2/C(=C(\O)c3cc(C)ccc3C)C(=O)C(=O)N2CCN(C)C)ccc1O (stereo unspecified) | 104.4 | 15.1 | -6.1 | 106.5 | -6.8 | 106.6 | -6.2
N/C(=N\OC(=O)c1ccco1)c1cccc(Br)c1 | 93.3 | 17.8 | -4.4 | 92.5 | -13.2 | 72.8 | 6.2

Screens as filed in PubChem BioAssay.

The list is partial; rates above refer to the full screens.
